From PubChem BioAssay
supercomplex: modulators of mitochondrial supercomplex assembly, cell-based, luminescence, Hoechst nuclei count (AID 1645838); Cells, luminescence/Hoechst cell count ratio, supercomplex reporter; stronger effect = higher value; z-score at 11 µM unless noted; hit rate 5% among 2,000;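 active = mean z-score of two plates above 1.96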;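 note: control cybrid cells; higher means more mitochondrial supercomplex formation; U2OS-based cells read after two days; 0 = mean of sample wells on the plate; doses worked out from stocks diluted about 900-fold with the highest of each compound shown; many of its hits are not listed in these tables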
supercomplex cell count: second read-out of supercomplex, no call of its own (marks repeat the call); cell count; measured here: cell number, Hoechst nuclei count;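 nuclei per well as mean of two plates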
* = called active by the depositor.

Preview:
How did COc1nc(C)nc(NC(=O)NS(=O)(=O)c2ccccc2Cl)n1 do in these assays?
supercomplex: 0.59; supercomplex cell count: 6976

How did O=C(O)CCC(CP(=O)(O)O)C(=O)O (centres undefined) do in these assays?
supercomplex: -0.32; supercomplex cell count: 5011

This part in full, repeating the preview:
How did COc1nc(C)nc(NC(=O)NS(=O)(=O)c2ccccc2Cl)n1 do in these assays?
supercomplex: 0.59; supercomplex cell count: 6976

How did O=C(O)CCC(CP(=O)(O)O)C(=O)O (centres undefined) do in these assays?
supercomplex: -0.32; supercomplex cell count: 5011

How did CCOC(=O)c1c(C(C#N)=CN)c2ccc(Cl)c(Cl)c2n1C do in these assays?
supercomplex: -0.92; supercomplex cell count: 5570

Results for CCCOc1ccc2[nH]cc(C3=CCNCC3)c2n1 ?
supercomplex: -0.74; supercomplex cell count: 6653

What do the screens show for `CS(=O)(=O)c1ccc(C(=O)C2C(=O)CCCC2=O)c(Cl)c1`?
supercomplex: -0.091; supercomplex cell count: 4892

How did CP(=O)(O)CCC(N)C(=O)O (centres undefined) do in these assays?
supercomplex: -0.47; supercomplex cell count: 7061

How did NC(CCl)C(=O)O (centres undefined) do in these assays?
supercomplex: 0.035; supercomplex cell count: 4786

Results for CC1=C(O)C(=O)C=C2C1=CC=C1[C@@]2(C)CC[C@@]2(C)C3C[C@](C)(C(=O)O)CC[C@]3(C)CC[C@]12C (some centres undefined) ?
supercomplex: inactive

Results for CN1CCC(c2c[nH]c3ccc(O)cc23)CC1 ?
supercomplex: -0.86; supercomplex cell count: 6846

How did Cc1ccc(C23CNCC2C3)cc1 (centres undefined) do in these assays?
supercomplex: -0.42; supercomplex cell count: 6045

Results for C[C@]12CCC(=O)C(O)=C1CC[C@@H]1[C@H]2CC[C@]2(C)C(=O)CC[C@H]12 ?
supercomplex: -0.071; supercomplex cell count: 5618

What do the screens show for `CCN1CCN(C(=O)Cc2ccc(Nc3ncc(F)c(Nc4ccc(C(=O)Nc5ccccc5Cl)cc4)n3)cc2)CC1`?
supercomplex: inactive

How did Cn1cc(C2=C(c3cn(C4CCN(Cc5ccccn5)CC4)c4ccccc34)C(=O)NC2=O)c2ccccc21 do in these assays?
supercomplex: -0.59; supercomplex cell count: 5116

Results for Cc1ccccc1-n1c(Cn2cnc3c(N)ncnc32)nc2cccc(C)c2c1=O ?
supercomplex: 0.12; supercomplex cell count: 5806

What do the screens show for `COc1ccc2c3c([nH]c2c1)C(C=C(C)C)N1C(=O)[C@H]2CCCN2C(=O)[C@@H]1C3` (some centres undefined)?
supercomplex: 0.54; supercomplex cell count: 4505

Results for Oc1ccc(Cl)cc1Cl ?
supercomplex: -0.12; supercomplex cell count: 7046

6 records drawn at random from those above, as already listed:
What do the screens show for `COc1ccc2c3c([nH]c2c1)C(C=C(C)C)N1C(=O)[C@H]2CCCN2C(=O)[C@@H]1C3` (some centres undefined)?
supercomplex: 0.54; supercomplex cell count: 4505

How did Cn1cc(C2=C(c3cn(C4CCN(Cc5ccccn5)CC4)c4ccccc34)C(=O)NC2=O)c2ccccc21 do in these assays?
supercomplex: -0.59; supercomplex cell count: 5116

How did CP(=O)(O)CCC(N)C(=O)O (centres undefined) do in these assays?
supercomplex: -0.47; supercomplex cell count: 7061

How did NC(CCl)C(=O)O (centres undefined) do in these assays?
supercomplex: 0.035; supercomplex cell count: 4786

What do the screens show for `CCN1CCN(C(=O)Cc2ccc(Nc3ncc(F)c(Nc4ccc(C(=O)Nc5ccccc5Cl)cc4)n3)cc2)CC1`?
supercomplex: inactive

Results for CC1=C(O)C(=O)C=C2C1=CC=C1[C@@]2(C)CC[C@@]2(C)C3C[C@](C)(C(=O)O)CC[C@]3(C)CC[C@]12C (some centres undefined) ?
supercomplex: inactive

Only part of the results is shown; rates above refer to the full screens.
